# Measles inh = inhibitors of measles virus growth in infected cells; infected Vero cells, GFP fluorescence, 64 h; stronger effect = lower value; z-score (test concentration not listed); hit rate 0.1% among 33,000; AID 745;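 active means z-score under -3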;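 further: score is relative to mean and SD of the compound wells of a plate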
# Starred values were filed as active, the others as inactive.
# A first look, 3 compounds:
SMILES,Measles inh
CC1CCCCN1S(=O)(=O)c1ccc(F)c(C(=O)Nc2cccc(Cl)c2)c1 (stereo unspecified),0.88
Cc1cccc(N(CC(=O)Nc2ccccc2)S(C)(=O)=O)c1C,-0.59
O=C(CCNS(=O)(=O)c1cccc2nonc12)Nc1ccc(Br)cc1,0.16

# This part in full (from the top)
SMILES,Measles inh
CC1CCCCN1S(=O)(=O)c1ccc(F)c(C(=O)Nc2cccc(Cl)c2)c1 (stereo unspecified),0.88
Cc1cccc(N(CC(=O)Nc2ccccc2)S(C)(=O)=O)c1C,-0.59
O=C(CCNS(=O)(=O)c1cccc2nonc12)Nc1ccc(Br)cc1,0.16
CCOc1cccc(C2C(C(=O)OCCOc3ccccc3)=C(C)NC3=C2C(=O)CC(C)(C)C3)c1 (stereo unspecified),-0.38
CNC(=O)C1=C(C)NC(=S)NC1c1cccc(OC)c1OC (stereo unspecified),-0.13
CCOc1ccc(NC(=O)c2sc(=S)n(-c3ccc(CC)cc3)c2N)cc1,-0.73
COc1ccc(NC(=O)c2sc3nc(C)cc(C(F)(F)F)c3c2N)cc1,0.05
COC(=O)CN1C=C(C(=O)OC)C(c2ccc(O)cc2)C(C(=O)OC)=C1,0.55
COc1ccc(NC(=O)c2nn3c(c2Br)NC(c2ccc(Br)o2)CC3C(F)(F)F)c(OC)c1 (stereo unspecified),0.34
CC(C)c1ccc(Nc2cc(C(=O)N3CCCCC3)c3ccccc3n2)cc1,-2.16
CC(=O)Oc1ccc(C2Nc3ccc4ccccc4c3C3C=CCC32)c(OC(C)=O)c1 (stereo unspecified),0.47
CSc1ccc(S(=O)(=O)NCCSc2ccccn2)cc1,0.53
O=C1C2C3c4ccccc4C(c4ccccc43)C2C(=O)N1c1ccccc1F (stereo unspecified),0.85
CC(=O)Nc1ccc(S(=O)(=O)NCCC(=O)O)cc1,-0.18
CC(C)(C)n1c(=O)[nH]c2c(c1=O)CCC2,0.05
O=C(C1=C(Nc2ccccc2)C(=O)N(c2ccccc2)C1c1ccc(Cl)cc1)c1ccccc1 (stereo unspecified),0.18
CCC(=O)N1c2ccccc2NC2=C(C(=O)CCC2)C1c1ccc(N(CC)CC)cc1 (stereo unspecified),1.19
COc1ccc(Cl)cc1NS(=O)(=O)c1cc(Br)cc2c1N(C(=O)C1CC1)CC2,1.9
Cc1ccc(C(=O)c2sc3nc(N)c(C#N)c(-c4ccc(C(C)C)cc4)c3c2N)cc1,0.81
O=C(O)COc1ccccc1C=Cc1ccc2cccc(OCc3ccccc3)c2n1,-0.05
CC(C)Cn1cc(C(=O)NC(C)C)c2c3ccccc3n(C)c2c1=O,-0.68
Cc1ccccc1NC(=O)Cn1c([N+](=O)[O-])cnc1C,0.03
O=C(NCCc1c[nH]c2ccccc12)C(=O)NCC1CCCO1 (stereo unspecified),-0.54
NC(N)=NS(=O)(=O)c1ccc(N=Cc2cccs2)cc1,0.23
CCCCCn1c(=O)[nH]c2cc(C(=O)NCc3ccccc3Cl)ccc2c1=O,1.69

# Next records follow.
SMILES,Measles inh
CCCS(=O)(=O)N1CCN(C(=O)c2cccc([N+](=O)[O-])c2)CC1,-1.31
Cc1sc(NC(=O)c2cc3ccccc3oc2=O)nc1-c1ccccc1,0.37
COc1ccc(C2CC(c3ccc(OC)cc3OC)n3nnnc3N2)cc1 (stereo unspecified),-0.39
Cc1cc2c(Nc3ccc(Br)cc3C)ncnc2s1,0.89
CCCSc1nnc2c(n1)OC(c1ccc(OCC(=O)O)cc1)Nc1ccccc1-2 (stereo unspecified),-0.74
O=C(CCCCCn1c(=S)[nH]c2ccc(Br)cc2c1=O)NCc1ccccc1Cl,-0.78
O=C(Nc1ccc2oc(-c3ccc(Br)cc3)nc2c1)c1ccc(Cl)cc1,1.55
COc1ccc(NC(=O)c2ccc(F)c(S(=O)(=O)N3CC(C)CC(C)C3)c2)cc1 (stereo unspecified),-0.35
O=C(Nc1ccc(Oc2ccccc2)cc1)c1cc2c(=O)[nH]c3ccccc3c2s1,0.39
CCOC(=O)c1nn(-c2cccc(C(F)(F)F)c2)c(=O)c2c(N)scc12,-0.38
CN1C(=O)C(C)(C)N(Cc2ccccc2)c2ccccc21,0.33
COc1cc(OC)c(C2SCCN2C(=O)c2cc3ccccc3oc2=O)cc1OC (stereo unspecified),0.07
CCOC(=O)c1ccc(NC2=NC(C)(C)Cc3ccccc32)cc1,-0.31
COc1ccc(OC)c(NC(=O)c2cc3ccccc3oc2=O)c1,-0.37
COc1ccc(C2=NN3C(C(=O)c4ccccc4)Oc4ccccc4C3C2)cc1 (stereo unspecified),0.34
Cc1cccc(N2CCN(C(=O)c3ccc(N4CC5CC(C4)c4cccc(=O)n4C5)c(NC(=O)c4ccc(C(C)(C)C)cc4)c3)CC2C)c1 (stereo unspecified),-0.09
Cn1c(=O)c(C(=O)Nc2cccc(Br)c2)c(O)c2ccccc21,-0.21
Oc1ccc(-c2[nH]ncc2Oc2ccccc2)c(O)c1O,4.02
Cc1ccc(C2CC(c3cccs3)=NN2C(=O)CSc2cn(C)c3ccccc23)cc1 (stereo unspecified),-1.3
CC(=O)Nc1cccc(N=Cc2cc(Cc3ccccc3)cc([N+](=O)[O-])c2O)c1,-0.82
CCSC1=NC(=Cc2c(OC)cc(OC)cc2OC)C(=O)S1,0.96
Cc1ccc(C(NC(=O)c2ccccc2)c2ccc3cccnc3c2O)cc1 (stereo unspecified),-0.17
Nc1nc(-c2ccccc2)cc(C(F)(F)F)n1,0.78
COC(=O)C1=C(C)N(c2ccc(C)c(Cl)c2)C(=O)C1,1.47
O=C(CSc1nnc2scc(-c3ccccc3)n12)Nc1ccc2c(c1)OCCO2,-0.73

# (next part)
SMILES,Measles inh
O=C(Cn1c(=O)[nH]c2ccccc2c1=O)NCCc1ccccc1Cl,0.25
CCOc1ccc(NC(=O)Cn2cc(C(=O)C(F)(F)F)c3ccccc32)cc1,-0.36
COc1ccc(C(=O)N2CCC(C(=O)Nc3ccccc3Cl)CC2)cc1,2.17
COc1ccc(COC(=O)C2=C(C)NC3=C(C(=O)CC(C)(C)C3)C2c2ccc(-c3ccccc3)cc2)cc1 (stereo unspecified),0.7
COCCCNC(=O)c1ccc2c(c1)ncn2-c1cc(OC)ccc1OC,0.33
Cc1ccc(CNC(=O)C2CCC(=O)N2Cc2ccccc2Cl)cc1 (stereo unspecified),1.9
CC(C)CC(NC1CCS(=O)(=O)C1)C(=O)O (stereo unspecified),0.48
Cc1ccc(C(=O)Nc2ccc(N3C(=O)c4cccc5cccc(c45)C3=O)cc2)cc1,0.25
CCCNC(=O)c1ccc2c(c1)ncn2-c1ccc(C)c(Cl)c1,0.49
Cc1ccc(S(=O)(=O)N2CCN(C(=O)c3ccccc3)CC2)c(C)c1NS(C)(=O)=O,-0.09
CCN(c1ccccc1)S(=O)(=O)c1ccc2[nH]cc(C(=O)N3CCOCC3)c(=O)c2c1,-1.84
CC1CC(Nc2ccccc2)c2ccccc2N1C(=O)NC1CCCCC1 (stereo unspecified),-0.02
CCc1ccc(NC(=O)c2cc3nc(-c4ccccc4)cc(C)n3n2)cc1,-1.4
Cn1c(=O)cc(SCC(=O)N2CCCC2)c2ccccc21,-1.21
CCOC(=O)C1=CN(c2cc(C)cc(C)c2)C=C(C(=O)OCC)C1c1ccc2c(c1)OCO2,0.95
Cn1nnc(N2C(=O)C(O)=C(C(=O)c3ccco3)C2c2ccccc2)n1 (stereo unspecified),-0.47
O=C(Nc1nccs1)c1sc2ccccc2c1Cl,-0.32
COC(=O)Cc1cc(=O)[nH]c(/N=C(/N)Nc2ccccc2)n1,-0.56
CCc1ccc(Nc2nc(-c3cc4cc(OC)ccc4oc3=O)cs2)cc1,-0.29
Cc1cn(S(=O)(=O)c2ccc(Cl)cc2)c(C)n1,-0.41
O=C(CCN1CCCCCC1)Nc1ccccc1Cl,-0.19
COc1ccccc1NC(=O)C1=C(C)NC2=C(C(=O)CC(c3ccc(OC)c(OC)c3)C2)C1c1ccccc1OC (stereo unspecified),0.23
CC12CC(NC(=O)N1c1cccc(C(=O)N3CCN(c4cccc(Cl)c4)CC3)c1)c1cc(Cl)ccc1O2 (stereo unspecified),0.83
COCCCNC(=O)c1ccc2c(=O)n(CCOC)c(=O)[nH]c2c1,0.63
Cc1ccccc1-c1nc2cc(NC(=O)COc3ccc(C(C)(C)C)cc3)ccc2o1,0.52

# Laid out differently: 4 of the compounds above.
Molecule: CCc1ccc(Nc2nc(-c3cc4cc(OC)ccc4oc3=O)cs2)cc1
- Measles inh: -0.29
Molecule: COc1ccc(COC(=O)C2=C(C)NC3=C(C(=O)CC(C)(C)C3)C2c2ccc(-c3ccccc3)cc2)cc1 (stereo unspecified)
- Measles inh: 0.7
Molecule: Cc1ccc(S(=O)(=O)N2CCN(C(=O)c3ccccc3)CC2)c(C)c1NS(C)(=O)=O
- Measles inh: -0.09
Molecule: O=C(CCN1CCCCCC1)Nc1ccccc1Cl
- Measles inh: -0.19

# Four records picked at random from those above:
SMILES,Measles inh
Cc1ccc(CNC(=O)C2CCC(=O)N2Cc2ccccc2Cl)cc1 (stereo unspecified),1.9
COCCCNC(=O)c1ccc2c(=O)n(CCOC)c(=O)[nH]c2c1,0.63
Cn1nnc(N2C(=O)C(O)=C(C(=O)c3ccco3)C2c2ccccc2)n1 (stereo unspecified),-0.47
CCc1ccc(Nc2nc(-c3cc4cc(OC)ccc4oc3=O)cs2)cc1,-0.29

# Further structures.
SMILES,Measles inh
COc1cc(-c2nc3ccccn3c2N=Cc2ccc(Cl)c([N+](=O)[O-])c2)ccc1O,-0.19
COc1ccc(CC(=O)Oc2c(S(=O)(=O)c3ccc(C)cc3)c(C)nn2C(C)(C)C)cc1,-0.27
COc1cccc(-c2nc(S(=O)(=O)c3ccc(C)cc3)c(NCc3ccccc3)o2)c1,-0.52
CCOc1ccc(N2C(=O)Nc3ccc(Br)cc3C2(O)C(=O)NCCc2ccc(Cl)cc2)cc1 (stereo unspecified),2.78
Cc1ccc(-n2nc3c(c2NC(=O)c2cccs2)CSC3)cc1,0.71
Cc1cccc(CN2CCN(CC(=O)NCCc3ccccc3)C2=O)c1,-1.13
CC(=O)Nc1ccc(NC(=O)CCC(=O)Oc2ccc(C)cc2)cc1,-0.39
CCOc1ccc(C2NC(=S)NC(C)=C2C(=O)Nc2ccccc2OCC)cc1 (stereo unspecified),0.48
Cc1ccc(S(=O)(=O)N2CCCC(C(=O)NCCN3CCCCC3)C2)cc1 (stereo unspecified),-0.43
COc1ccccc1-c1nc(S(=O)(=O)c2ccc(Cl)cc2)c(N(C)C)o1,-0.93
CC(=O)Nc1ccc(S(=O)(=O)NC(CC(=O)O)C(C)C)cc1 (stereo unspecified),0.75
COCCOC(=O)C1=C(C)NC2=C(C(=O)C(C(=O)OC)C(C)C2)C1c1ccc(F)cc1 (stereo unspecified),-0.7
NS(=O)(=O)c1ccc(CCNC(=O)CSc2nc3ccc(Br)cc3c3nc4ccccc4n23)cc1,-0.79
CC(=O)C12c3ccccc3C(c3ccccc31)C1C(=O)N(c3ccc([N+](=O)[O-])cc3Br)C(=O)C12 (stereo unspecified),-0.3
Cc1cccc(OCCSc2nc3ccccc3n2CC(N)=O)c1,-0.46
O=C(Nc1ccc(Br)cc1)c1cc2nc(-c3cccs3)cc(C(F)(F)F)n2n1,-1.15
CCN(CC)CCCNC(=O)c1cc2c(=O)n3cccc(C)c3nc2s1,1.23
CC1=C(C(=O)Nc2ccc(C)cc2)C(c2ccc(Br)cc2)n2ncnc2N1 (stereo unspecified),-1.01
CCCCN(C)C(=O)C1c2cc(OC)c(OC)cc2C(=O)N(C)C1c1cccs1 (stereo unspecified),-0.62
C=CCNC(=O)c1cc(=O)[nH]c2ccc(S(=O)(=O)N3CCCC(C)C3)cc12 (stereo unspecified),1.78
COc1ccc(Nc2cc(C(=O)N3CCN(c4ccccn4)CC3)c3ccccc3n2)c(OC)c1,0.23
CCCOC(=O)CSc1nc2c(cc1C#N)C(=O)CCC2,-0.11
CN(c1ccccc1)S(=O)(=O)c1ccc(C(=O)Nc2nc(-c3ccccc3)cs2)cc1,-1.08
CC(=O)Nc1cn(C(C)=O)c(C)n1,-0.3
COc1cccc(-n2c(=O)c3c4c(sc3n(CC(=O)NC3CCCC3)c2=O)CCCC4)c1,1.54

# More structures.
SMILES,Measles inh
CCC(=O)N1CCc2cc(S(=O)(=O)Nc3cc(OC)ccc3OC)ccc21,1.46
Cc1cc(C)cc(NC(=O)c2sc(=S)n3c2[nH]c(=O)c2ccccc23)c1,0.03
CN(C)c1cc(-c2ccccc2)nc(N)n1,-0.1
COc1cccc(N2CCN(C(=O)CCn3c(=S)[nH]c4cc5c(cc4c3=O)OCO5)CC2)c1,-0.96
S=c1[nH]nc(-c2ccccc2Cl)o1,0.64
COc1ccc(-c2noc(-c3ccc(Br)o3)n2)cc1,-2.03
Cc1ccc(-n2c(SCC#N)nc3c(sc4ccccc43)c2=O)cc1,-1.59
Brc1ccc2ncccc2c1,-0.49
Cc1cccc(C(=O)Nc2ccc(Cl)c(-c3nc4ncccc4o3)c2)c1,-0.26
COc1ccc(C=Nc2ccc3c(c2)c2nc4ccccc4nc2n3C)c(O)c1,-0.72
CCOC(=O)c1[nH]c2ccccc2c1NC(=O)c1ccc(-c2ccccc2)cc1,-0.33
CC12CC(NC(=O)N1c1cccc(C(=O)NCc3ccccc3)c1)c1ccccc1O2 (stereo unspecified),-0.21
COc1ccccc1CNC(=O)c1ccc(Cn2c(=O)c3ccccc3n(Cc3ccc(C)cc3)c2=O)cc1,0.08
O=C(NCCCN1CCOCC1)c1n[nH]c(=O)c2ccccc12,-0.51
CC1(C)CC(=O)C2=C(C1)Nc1ccccc1NC2c1ccccc1Cl (stereo unspecified),-0.61
O=CNC1c2ccccc2Oc2ccccc21,0.45
CCCCSc1oc(-c2ccco2)nc1S(=O)(=O)c1ccccc1,0.24
Cc1ccc(S(=O)(=O)c2nc(C(c3ccccc3)c3ccccc3)oc2N2CCOCC2)cc1,-0.76
Cc1ccc(S(=O)(=O)N(C)C(=O)NC(=O)Nc2c(C)cc(C)cc2C)cc1,0.15
CCOC(=O)c1ccc(Nc2ncnc3c2cnn3-c2ccc(OC)cc2)cc1,-0.57
CC(C)(C)NC(=O)c1c(NC(=O)c2ccccc2)sc2c1CCC(C(C)(C)C)C2 (stereo unspecified),-0.3
CC(NC1CC(=O)N(c2ccc(-c3nc4ccccc4o3)cc2)C1=O)c1ccccc1 (stereo unspecified),-0.87
COCCn1c(=S)[nH]c2cc(C(=O)NCCCN3CCOCC3)ccc2c1=O,0.48

# Some of the compounds tested; the hit share may differ from the screen's.
